UUG fidelity: yeast start codon fidelity modulation; S. cerevisiae UUG-firefly luciferase reporter, luminescence/redox ratio; activity score, % at 18.7 µM; 0.13% of 350,000 active;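 active = replicate mean at a twofold rise or more, about +100% in these data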;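 note: firefly luciferase made from a UUG start codon reports start codon fidelity; reporter light over untreated wells divided by growth signal over untreated wells; some hits fall short of that in this replicate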
HIV Env fusion: blocks HIV Env-driven cell-cell fusion. HeLa-JRFL Env/CEM21 cell fusion, luciferase. inhibition, % at 12.3 µM. 1.1% of 360,000 active. AID 651610;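 active = mean replicate inhibition score of at least 50 and every replicate individually at or above 50; inconclusive = only one of the two criteria met; inactive = mean below 50 and not all replicates reaching 50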;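 note: 0% = plate neutral controls and 100% = maraviroc near 300 nM; one replicate is shown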
* = called active by the depositor; ? = inconclusive; [ ] = remark or other dose.

UUG fidelity,HIV Env fusion,mol
-8,30[16.7 µM],C[C@@H]1CN([C@H](C)CO)S(=O)(=O)c2ccc(C#CC3CC3)cc2O[C@H]1CN(C)C
-11,20[16.7 µM],O=C(C[C@H]1C=C[C@@H](NS(=O)(=O)c2ccc(F)cc2)[C@H](CO)O1)NCc1ccc(Cl)c(Cl)c1
-3,-14[16.7 µM],O=C(C[C@H]1CC[C@H](NS(=O)(=O)c2ccc(F)cc2)[C@H](CO)O1)NC1CCC1
-4,-1[16.7 µM],Cc1cc(C(=O)Nc2cccc3c2O[C@@H](CN(C)C)[C@H](C)CN([C@@H](C)CO)C3=O)n(C)n1
1,-4[16.7 µM],COc1ccccc1CNC(=O)C[C@H]1C=C[C@@H](NC(=O)CC2CC2)[C@H](CO)O1
23,17[16.7 µM],CC(C)CC#Cc1ccc2c(c1)O[C@H](CN(C)C)[C@@H](C)CN([C@@H](C)CO)S2(=O)=O
8,-15[16.7 µM],Cc1noc(C)c1NC(=O)Nc1ccc2c(c1)C(=O)N([C@@H](C)CO)C[C@H](C)[C@H](CN(C)S(=O)(=O)c1ccccc1)O2
12,26[16.7 µM],C[C@@H]1CN([C@@H](C)CO)C(=O)c2cc(C#CCc3ccccc3)cnc2O[C@H]1CN(C)C(=O)C1CCC1
-5,3[16.7 µM],C[C@@H]1CN([C@H](C)CO)C(=O)c2cccc(NC(=O)C3CC3)c2O[C@@H]1CN(C)Cc1ccc(Oc2ccccc2)cc1
44,-1[16.7 µM],C[C@@H]1CN([C@@H](C)CO)C(=O)c2cc(C#C[C@@H](C)O)cnc2O[C@H]1CN(C)C(=O)CC1CC1
-10,-2[16.7 µM],O=S(=O)(N[C@H]1CC[C@@H](CCn2cc(-c3cccc(F)c3)nn2)O[C@H]1CO)c1ccc(F)cc1
5,-1[16.7 µM],O=S(=O)(Cc1ccccc1)NCC[C@@H]1CC[C@@H](NS(=O)(=O)c2ccccc2)[C@@H](CO)O1
1,-6[16.7 µM],C[C@H]1CN([C@@H](C)CO)C(=O)c2cccc(NS(=O)(=O)c3cn(C)cn3)c2O[C@@H]1CN(C)Cc1ccc(C(F)(F)F)cc1
-7,12[16.7 µM],COc1ccc(S(=O)(=O)N(C)C[C@H]2Oc3cc(C#CC4CC4)ccc3S(=O)(=O)N([C@H](C)CO)C[C@@H]2C)cc1
4,6[16.7 µM],C[C@@H]1CN([C@H](C)CO)C(=O)Cc2cc(NC(=O)NC3CCCCC3)ccc2O[C@@H]1CN(C)S(=O)(=O)c1ccc(Cl)cc1
-7,-7[16.7 µM],Cc1noc(C)c1NC(=O)Nc1cccc2c1O[C@@H](CN(C)C(=O)Nc1ccccc1)[C@@H](C)CN([C@H](C)CO)C2=O
7,8[16.7 µM],C[C@@H]1CCCCO[C@H](CN(C)C(=O)C2CCCCC2)[C@H](C)CN([C@@H](C)CO)C(=O)c2cc(NS(=O)(=O)c3ccc(Cl)cc3)ccc2O1
-6,-6[16.7 µM],CC(=O)n1cc([C@@H]2C=C(C(N)=O)O[C@H](OCCCCO)C2)c2ccccc21
8,18[16.7 µM],C[C@H]1CN([C@@H](C)CO)C(=O)c2cccc(NC(=O)Nc3ccccc3)c2O[C@@H]1CN(C)Cc1ccc(C(F)(F)F)cc1
-3,22[16.7 µM],CC(C)CC#Cc1ccc2c(c1)O[C@@H](CN(C)C(=O)c1ccccc1)[C@@H](C)CN([C@H](C)CO)S2(=O)=O

Given as comma-separated lines: part of the list above.
mol,UUG fidelity,HIV Env fusion
Cc1noc(C)c1NC(=O)Nc1cccc2c1O[C@@H](CN(C)C(=O)Nc1ccccc1)[C@@H](C)CN([C@H](C)CO)C2=O,-7,-7[16.7 µM]
C[C@@H]1CCCCO[C@H](CN(C)C(=O)C2CCCCC2)[C@H](C)CN([C@@H](C)CO)C(=O)c2cc(NS(=O)(=O)c3ccc(Cl)cc3)ccc2O1,7,8[16.7 µM]
CC(=O)n1cc([C@@H]2C=C(C(N)=O)O[C@H](OCCCCO)C2)c2ccccc21,-6,-6[16.7 µM]

Going on with the list.
UUG fidelity,HIV Env fusion,mol
18,9[16.7 µM],CCCC(=O)Nc1ccc2c(c1)OC[C@@H](C)N(Cc1ccncc1)C[C@H](C)[C@H](OC)CN(C)C2=O
26,-21[16.7 µM],C[C@@H]1CCCCO[C@@H](CN(C)C)[C@H](C)CN([C@H](C)CO)C(=O)c2cc(NC(=O)Nc3ccc(C(F)(F)F)cc3)ccc2O1
-5,-1[16.7 µM],C[C@H]1CN([C@@H](C)CO)C(=O)c2cccc(NC(=O)c3cnccn3)c2O[C@@H]1CN(C)C(=O)Nc1cccc2ccccc12
-11,-5[16.7 µM],O=S(=O)(N[C@@H]1CC[C@H](CCn2cc(C3CC3)nn2)O[C@@H]1CO)c1ccc(Cl)cc1
-8,-6[16.7 µM],COc1ccc(S(=O)(=O)Nc2ccc3c(c2)C(=O)N([C@H](C)CO)C[C@H](C)[C@H](CN(C)S(=O)(=O)c2cn(C)cn2)O3)cc1
-11,-7[16.7 µM],COc1cccc(S(=O)(=O)N(C)C[C@H]2Oc3ncc(-c4cccc(C(=O)N(C)C)c4)cc3C(=O)N([C@H](C)CO)C[C@H]2C)c1
-11,9[16.7 µM],C[C@H](CO)N1C[C@H](C)[C@H](CN(C)Cc2ccc(Oc3ccccc3)cc2)OCc2cn(nn2)CCCC1=O
-5,-136[16.7 µM],CCC(=O)N(C)C[C@@H]1Oc2cc(C#CC(C)(C)O)ccc2S(=O)(=O)N([C@H](C)CO)C[C@@H]1C
-2,2[16.7 µM],C[C@H](CO)N1C[C@H](C)[C@@H](CN(C)Cc2ccc(C(F)(F)F)cc2)Oc2ccc(NS(=O)(=O)c3ccc(Cl)cc3)cc2C1=O
7,7[16.7 µM],Cc1noc(C)c1NC(=O)N(C)C[C@@H]1OCCCC[C@H](C)Oc2ccc(NC(=O)CCC(F)(F)F)cc2C(=O)N([C@@H](C)CO)C[C@@H]1C
11,-10[16.7 µM],COc1ccc(NC(=O)N(C)C[C@@H]2Oc3ncc(-c4cc5ccccc5o4)cc3C(=O)N([C@H](C)CO)C[C@@H]2C)cc1
1,-21[16.7 µM],C[C@@H]1CN([C@@H](C)CO)C(=O)c2cc(/C=C/c3ccccc3)cnc2O[C@H]1CN(C)C(=O)c1cccc(F)c1
14,-67[16.7 µM],C[C@H](CO)N1C[C@H](C)[C@H](CN(C)C(=O)Nc2ccccc2)OCCCC[C@H](C)Oc2ccc(NS(=O)(=O)c3cccs3)cc2C1=O
-15,-16[16.7 µM],C[C@H]1CN([C@@H](C)CO)C(=O)c2cc(-c3cccc(C#N)c3)cnc2O[C@H]1CN(C)C
-15,3[16.7 µM],CCCC#Cc1cnc2c(c1)C(=O)N([C@H](C)CO)C[C@H](C)[C@@H](CN(C)Cc1ccc3c(c1)OCO3)O2
2,-33[16.7 µM],C[C@@H]1CN([C@H](C)CO)C(=O)Cc2cc(NC(=O)Nc3ccc(F)cc3)ccc2O[C@@H]1CN(C)CC1CCCCC1
-5,-44[16.7 µM],Cc1ccc(S(=O)(=O)N(C)C[C@@H]2OCCCC[C@H](C)Oc3ccc(NS(=O)(=O)c4ccccc4)cc3C(=O)N([C@H](C)CO)C[C@H]2C)cc1
6,25[16.7 µM],COc1ccccc1-c1ccc2c(c1)O[C@H](CN(C)C(C)=O)[C@H](C)CN([C@@H](C)CO)S2(=O)=O
6,-3[16.7 µM],COCCNC(=O)C[C@H]1C[C@H]2c3cc(NC(=O)Nc4ccc(OC)cc4)ccc3O[C@H]2[C@H](CO)O1
1,6[16.7 µM],O=C(C[C@@H]1CC[C@H](NC(=O)Nc2ccccc2F)[C@H](CO)O1)NCc1ccccc1

(continued)
UUG fidelity,HIV Env fusion,mol
0,-4[16.7 µM],O=C(N[C@H]1CC[C@H](CCn2cc(-c3ccccn3)nn2)O[C@H]1CO)c1ccncc1
6,21[16.7 µM],CCCC#Cc1ccc2c(c1)O[C@@H](CN(C)S(C)(=O)=O)[C@H](C)CN([C@H](C)CO)S2(=O)=O
18,-4[16.7 µM],C[C@H](CO)N1C[C@H](C)[C@@H](CN(C)C(=O)CCCN(C)C)OCCCC[C@H](C)Oc2ccc(NC(=O)C3CCCCC3)cc2C1=O
4,-2[16.7 µM],COCC(=O)N(C)C[C@@H]1Oc2cc(C#Cc3ccccc3)ccc2S(=O)(=O)N([C@@H](C)CO)C[C@@H]1C
18,-12[16.7 µM],COc1ccc(CN(C)C[C@H]2OCCCC[C@H](C)Oc3ccc(NC(=O)NC(C)C)cc3C(=O)N([C@H](C)CO)C[C@H]2C)cc1
8,-5[16.7 µM],CCC(=O)N1C[C@H](C)[C@H](OC)CN(C)C(=O)c2cc(NC(=O)Nc3cccc(F)c3)ccc2OC[C@@H]1C
12,1[16.7 µM],N#C[C@@H]1[C@H](c2ccccc2)[C@@H](CO)N1C(=O)c1cc(Cl)cc(Cl)c1
-2,-1[16.7 µM],C[C@H](CO)N1C[C@H](C)[C@H](CN(C)CC2CCCCC2)Oc2ccc(NS(=O)(=O)c3ccccc3)cc2CC1=O
6,-4[16.7 µM],O=C(C[C@H]1C[C@@H]2c3cc(NC(=O)c4ccc5c(c4)OCO5)ccc3O[C@@H]2[C@@H](CO)O1)NCC1CC1
1,4[16.7 µM],COc1ccc(NC(=O)N(C)C[C@@H]2Oc3ncc(-c4cccnc4)cc3C(=O)N([C@H](C)CO)C[C@@H]2C)cc1
1,4[16.7 µM],C[C@@H]1CCCCO[C@@H](CN(C)C(=O)C2CCCCC2)[C@H](C)CN([C@H](C)CO)C(=O)c2cc(NC(=O)NC3CCCCC3)ccc2O1
7,39*[16.7 µM],C[C@H](CO)N1C[C@H](C)[C@H](CN(C)C(=O)Nc2cccc3ccccc23)Oc2ncc(-c3ccc(F)cc3)cc2C1=O
-8,5[16.7 µM],O=S(=O)(N[C@H]1CC[C@H](CCn2cc(C3CC3)nn2)O[C@@H]1CO)c1ccc(Cl)cc1
83,-13[16.7 µM],O=C(Nc1ccccc1)N[C@@H](Cc1ccccc1)Cn1cc(CN2C(=O)COC[C@H]2c2ccccc2)nn1
2,6[16.7 µM],C[C@@H]1CCCCO[C@H](CN(C)S(=O)(=O)c2cn(C)cn2)[C@H](C)CN([C@H](C)CO)C(=O)c2cc(NS(C)(=O)=O)ccc2O1
-1,34[16.7 µM],C/C=C/c1ccc2c(c1)O[C@H](CN(C)Cc1ccccc1F)[C@H](C)CN([C@H](C)CO)S2(=O)=O
7,-4[16.7 µM],COc1ccc(COC[C@@]23Oc4ccccc4[C@@H](NC(=O)N2C)[C@H]3COC(=O)c2ccc([N+](=O)[O-])cc2)cc1
6,1[16.7 µM],O=C(C1=C[C@H](c2ccc(C(F)(F)F)cc2)C[C@H](OCc2ccc(CO)cc2)O1)N1CCCC1
5,-12[16.7 µM],COc1ccc(S(=O)(=O)N[C@H]2CC[C@@H](CCNC(=O)CN3CCOCC3)O[C@H]2CO)cc1
18,?,Cc1ccc(S(=O)(=O)N(C)C[C@@H]2Oc3ccc(NC(=O)CCC(F)(F)F)cc3C(=O)N([C@@H](C)CO)C[C@@H]2C)cc1

The list continues.
UUG fidelity,HIV Env fusion,mol
5,13[16.7 µM],CCCc1cn(CC[C@@H]2CC[C@H](NC(=O)Nc3ccc4c(c3)OCO4)[C@@H](CO)O2)nn1
12,-11[16.7 µM],CNC(=O)C[C@H]1CC[C@@H]2[C@@H](COc3ccc(NC(=O)Cc4cccs4)cc3C(=O)N2C)O1
6,-14[16.7 µM],C[C@@H]1CCCCO[C@H](CN(C)Cc2ccccc2)[C@@H](C)CN([C@H](C)CO)C(=O)c2cc(NS(=O)(=O)c3ccc(F)cc3)ccc2O1
-17,2[16.7 µM],C[C@@H]1CN([C@H](C)CO)S(=O)(=O)c2ccc(-c3ccncc3)cc2O[C@@H]1CN(C)Cc1ccncc1
-8,2[16.7 µM],C[C@@H]1CN([C@H](C)CO)C(=O)c2cc(NC(=O)c3ccncc3)ccc2O[C@@H](C)CCCCO[C@@H]1CN(C)S(=O)(=O)c1ccccc1
17,28[16.7 µM],C[C@H](CO)N1C[C@H](C)[C@H](CN(C)Cc2ccc(C(=O)Nc3ccccc3N)cc2)Oc2c(cccc2N(C)C)C1=O
15,-10[16.7 µM],CC(C)NC(=O)Nc1ccc2c(c1)C(=O)N([C@H](C)CO)C[C@H](C)[C@@H](CN(C)Cc1ccc(C(=O)O)cc1)OCCCC[C@H](C)O2
5,-12[16.7 µM],C[C@@H]1CN([C@H](C)CO)C(=O)c2cc(NS(=O)(=O)c3ccc(F)cc3)ccc2O[C@@H]1CN(C)C(=O)Nc1ccc2c(c1)OCO2
-6,-11[16.7 µM],COCC(=O)N(C)C[C@H]1Oc2ncc(-c3ccccc3F)cc2C(=O)N([C@H](C)CO)C[C@@H]1C
-10,17[16.7 µM],COc1ccc(S(=O)(=O)N(C)C[C@H]2Oc3cc(-c4cccc(F)c4)ccc3S(=O)(=O)N([C@H](C)CO)C[C@@H]2C)cc1
-1,-5[16.7 µM],Cc1ccc(S(=O)(=O)N(C)C[C@@H]2Oc3ccc(NC(=O)Nc4ccc5c(c4)OCO5)cc3C(=O)N([C@H](C)CO)C[C@H]2C)cc1

An excerpt of these results, with two lines to a compound.
Results follow in this order: UUG fidelity	HIV Env fusion
- C[C@H](CO)N1C[C@H](C)[C@H](CN(C)Cc2ccc(C(=O)Nc3ccccc3N)cc2)Oc2c(cccc2N(C)C)C1=O
  17	28[16.7 µM]
- CC(C)NC(=O)Nc1ccc2c(c1)C(=O)N([C@H](C)CO)C[C@H](C)[C@@H](CN(C)Cc1ccc(C(=O)O)cc1)OCCCC[C@H](C)O2
  15	-10[16.7 µM]
- C[C@@H]1CN([C@H](C)CO)C(=O)c2cc(NS(=O)(=O)c3ccc(F)cc3)ccc2O[C@@H]1CN(C)C(=O)Nc1ccc2c(c1)OCO2
  5	-12[16.7 µM]
- COCC(=O)N(C)C[C@H]1Oc2ncc(-c3ccccc3F)cc2C(=O)N([C@H](C)CO)C[C@@H]1C
  -6	-11[16.7 µM]
- COc1ccc(S(=O)(=O)N(C)C[C@H]2Oc3cc(-c4cccc(F)c4)ccc3S(=O)(=O)N([C@H](C)CO)C[C@@H]2C)cc1
  -10	17[16.7 µM]

Screening results (PubChem BioAssay)

An excerpt; the hit share may differ from the screen's.
